Screening data as filed in PubChem.
gsp ag = qHTS for Agonist of gsp, the Etiologic Mutation Responsible for Fibrous Dysplasia/McCune-Albright Syndrome: qHTS. gsp mutant cells, cAMP HTRF, 30 min; control for the full effect not named in the record. actives 0.13% (n = 340,000). Potency, µM (highest dose often 76.9 µM), for the others: at the top dose activation (cAMP increase), hits mostly activators; active = well fitted activation curve with a large enough effect; inconclusive = small, poorly fitted or top-dose-only effect, or another doubt; inactive = no such curve, though single readings can be large or run the other way; cell line not stated here;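 further: phosphodiesterase inhibitor Ro 20-1724 added with compounds to block cAMP breakdown; potency means the concentration at half of the fitted maximal effect; nearly all actives have a fitted effect of over 60% in size; about a fifth of the inactives were tested at one dose only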
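Cells stably selected in G418 were plated at 2000/well, grown 16-24 hr, then given compounds in DMSO with the PDE inhibitor […] (300 uM solution added) for 30 min at 37C; cAMP was read by HTRF.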
Sfp PPTase inh = qHTS Assay for Inhibitors of Bacillus subtilis Sfp phosphopantetheinyl transferase (PPTase) | 4'-phosphopantetheinyl transferase ffp (Bacillus subtilis), Q9F4F7 | Biochemical Sfp PPTase activity, qHTS | Potency, µM, for the others: max response, negative = inhibition, usual class: inhibitors | actives 3.5% (n = 310,000) | AID 1490, 2009; active means well fitted inhibition curve with a large enough effect; inconclusive means small, poorly fitted or top-dose-only effect, or another doubt; inactive means no such curve, though single readings can be large or run the other way;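 further: the enzyme is Sfp with the accession as filed and its product quenches rhodamine fluorescence; potency means the concentration at half of the fitted maximal effect; 0% = enzyme reaction without inhibitor and -100% = no enzyme wells; top concentration of the series not given in the record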
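Buffer: 50 mM Hepes-Na pH 7.6, 10 mM MgCl2, 0.01% Nonidet P-40, 0.01% BSA. Enzyme 15 nM, pre-exposed to compound 15 min; substrates then added and fluorescence change tracked over 30 min.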
TRPV1 PAM = HTS Assay for Compounds that Act as Potentiators of the Vanilloid Receptor 1; TRPV1-expressing cells, Fluo-8 calcium influx, capsaicin EC20 potentiation; host cell line not named in the record; control for the full effect not named in the record; potentiation, % at 8.33 µM; actives 0.02% (n = 320,000); AID 540277, 2011; active means potentiation above 80%; inconclusive means 30% to 80%; inactive means below 30%; further: 0% is about no effect
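Cells expressing TRPV1 were dye-loaded with Fluo-8 and read kinetically: 10 s baseline, 3 min after compound (agonist portion), then 2 min after EC20 capsaicin (allosteric enhancer portion). Calcium-bound dye fluorescence at 480/520 nm.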
ClpP mod = qHTS Assay for Activators of ClpP. ATP-dependent Clp protease proteolytic subunit (Bacillus subtilis (strain 168)), P80244. purified B. subtilis ClpP, FRET peptide cleavage, 20 min. Potency, µM (doses to about 57.5 µM), without a hit: at the highest dose activity change, negative = active. actives 1.9% (n = 340,000). AID 651965, 2013; active = well fitted falling curve with a large enough effect; inconclusive = small, poorly fitted or top-dose-only effect; inactive = no such curve, though single readings can be large or run the other way; further: potency means the concentration at half of the fitted maximal effect; the source files actives as falling curves though it sought activators and does not explain the sign; nearly all actives have a fitted effect of over 65% in size; many hits overshoot -100%
Target sequence (P80244 whole entry, looked up): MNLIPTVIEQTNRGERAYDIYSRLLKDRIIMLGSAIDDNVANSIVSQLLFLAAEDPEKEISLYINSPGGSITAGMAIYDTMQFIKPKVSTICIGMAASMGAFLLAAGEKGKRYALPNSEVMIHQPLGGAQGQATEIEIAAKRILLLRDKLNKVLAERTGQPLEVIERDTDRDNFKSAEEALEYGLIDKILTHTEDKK
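FRET quenching reversal measured ClpP activation: 10 microg/mL B. subtilis ClpP at pH 8 with the FRET-FV decapeptide, read at 430 nm after 320 nm excitation. The 20-min minus 0-min signal was scaled between DMSO/no-enzyme wells and ADEP (5.8 microM final).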
Menin-MLL FL inh = qHTS Assay for Inhibitors Targeting the Menin-MLL Interaction in MLL Related Leukemias: Competition With Fluorescein Labeled MLL-derived Peptide. Fluorescence polarization, fluorescein-MLL peptide displacement from menin. FP activity change, % at 61.4 µM. 290,000 tested, under 10 active. AID 1766, 2009; inconclusive = falling polarisation curve, or a change in total fluorescence; inactive = total fluorescence flat and polarisation flat or rising; no compound was filed as active; the % refers to the polarisation; negative = inhibition;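 further: % of control where 0% means no effect; inhibitors lower the polarisation; unlabelled MLL peptide was the positive control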
D2 PAM = Beta-Arrestin HTS for Positive Allosteric Modulators of the Human D2 Dopamine Receptor: Potentiators. D(2) dopamine receptor (Homo sapiens), P14416. DiscoveRx D2 beta-arrestin cells, luminescence, 90 min; 100% = 57 uM dopamine signal. potentiation, % (test concentration not listed). actives 0.23% (n = 360,000); active = potentiation of 50% or more; inconclusive = 30% to 50%; inactive = 30% or less;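 further: compound concentration not given in the record; tested on top of an EC20 dose of dopamine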
Target sequence (P14416 whole entry, looked up): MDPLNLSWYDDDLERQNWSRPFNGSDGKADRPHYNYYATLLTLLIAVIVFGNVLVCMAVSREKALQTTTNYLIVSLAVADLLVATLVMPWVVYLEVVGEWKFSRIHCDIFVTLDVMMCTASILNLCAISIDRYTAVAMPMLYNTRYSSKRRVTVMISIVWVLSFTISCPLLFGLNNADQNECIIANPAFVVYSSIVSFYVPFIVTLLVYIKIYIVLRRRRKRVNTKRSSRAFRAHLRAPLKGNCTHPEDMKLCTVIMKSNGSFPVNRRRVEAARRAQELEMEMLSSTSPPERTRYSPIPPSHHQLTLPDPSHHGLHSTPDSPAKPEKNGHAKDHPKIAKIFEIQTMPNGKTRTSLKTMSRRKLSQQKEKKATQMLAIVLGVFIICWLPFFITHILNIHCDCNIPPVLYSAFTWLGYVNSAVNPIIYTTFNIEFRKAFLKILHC
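PathHunter D2 cells, attached overnight at 37 deg C, received compound in DMSO plus dopamine at EC20 (50 nM final) for 90 min at 37 deg C. Beta-arrestin recruitment was read as luminescence after 1 h with detection reagent at ambient temperature.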
gsp antagonist = qHTS for Antagonists of gsp, the Etiologic Mutation Responsible for Fibrous Dysplasia/McCune-Albright Syndrome: qHTS. gsp-mutant cells, cAMP HTRF, 30 min; control for the full effect not named in the record. Potency, µM (top dose mostly 76.9 µM), without a hit: at the top dose activity change, negative = inhibition, hits mostly inhibitors. actives 0.4% (n = 340,000); active = falling curve of any shape with a large fitted effect; inconclusive = falling curve, mostly with a smaller effect; inactive = flat or rising curve; cell line not stated here;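 further: intracellular cAMP measured with PDE inhibitor Ro 20-1724 present during compound exposure; potency means the concentration at half of the fitted maximal effect; on the % scale 0 is the no-effect control and ±100 the full control effect; nearly all actives have a fitted effect of over 65% in size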
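Cells, 2000/well, grown 16–24 h in DMEM 10% FBS with 0.5 mg/ml G418, then compounds plus […] (300 uM addition stock), 30 min at 37C. cAMP read by HTRF (cAMP-d2 and anti-cAMP antibody-K in lysis buffer) after 30 min RT.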
* marks the source's active call; other numbers are inactive results; ? = inconclusive; . = not tested or not shown; [ ] = dose if it differs, or a comment.

Below each SMILES – gsp ag	Sfp PPTase inh	TRPV1 PAM	ClpP mod	Menin-MLL FL inh	D2 PAM	gsp antagonist
1	COC(=O)c1[nH]c2ccc(Cl)cc2c1NC(=O)CN1CCC(C(N)=O)CC1
    -14.8%	9.4%	10.5	-21.9%	5.9	-11.7	-0.9%
2	O=C(c1ccccc1)c1coc2ccc(O)c(CN3CCOCC3)c12
    11.9%	6.7%	?	1.0%	2.9	-0.8	-15.1%
3	COCCNC(=O)/C(C#N)=C/c1c(N2CCCCCC2)nc2c(C)cccn2c1=O
    -9.7%[15.4 µM]	-1.7%	-12.9	0.4%	0.8	-5.2	3.2%
4	COc1ccc(CNC(=O)C2CCN(S(=O)(=O)c3c(C)n[nH]c3C)CC2)cc1
    22.2%	6.8%	-1.5	-1.5%	0.5	-2.2	1.6%
5	Cc1ccc(NC(=O)CSc2nnc(CNC(=O)c3ccco3)o2)cc1
    26.3%	17.1%	-35.9	-0.1%	-1.0	-2.9	5.7%
6	O=[N+]([O-])c1ccc2nc[nH]c2c1
    -29.7%	.	.	1.3%	.	-6.4	-1.2%
7	Cc1ccc(C2CC(c3ccccc3)=NN2c2ccccc2)o1 (stereo not given)
    -12.1%	-42.0%	17.1	25.1µM*	2.9	-8.9	-6.7%
8	O=C(C[n+]1ccn(-c2ccccc2)c1)c1ccc([N+](=O)[O-])cc1
    -30.2%[inhibitor]	8.9%	-2.1	0.7%	-10.5	-0.8	2.1%
9	O=[N+]([O-])c1ccc(CSc2nnc(Cc3ccccc3)o2)cc1
    -19.5%	-1.1%	-10.2	0.7%	11.5	-2.2	-1.5%
10	CC1CC(C)CN(S(=O)(=O)c2ccc(NC(=S)NC(=O)c3ccccc3)cc2)C1 (stereo not given)
    3.8%	-25.5%	-5.6	0.9%	6.6	4.3	-3.3%
11	CCC(C(=O)Nc1cccc(C(=O)O)c1)c1ccccc1 (stereo not given)
    -8.1%	2.2%	-3.4	.	3.5	-2.0	4.8%
12	Cc1ccc(C)c(N(C(=O)CCC(=O)Nc2cc(C)on2)C(C(=O)NC2CCCC2)c2ccco2)c1 (stereo not given)
    -25.7%	1.2%	-7.2	1.1%	0.4	-2.6	-5.9%
13	C[C@@H]1CN([C@@H](C)CO)S(=O)(=O)c2ccc(Br)cc2O[C@H]1CN(C)C(=O)Nc1ccc(C(F)(F)F)cc1
    ?	.	.	-0.6%	.	2.6	.
14	O=C(O)C(c1ccccc1)C1(O)CCC1 (stereo not given)
    -28.2%	.	.	.	.	-5.2	8.0%
15	O=S(=O)(Nc1ccc2c(c1)nc1n2CCN(Cc2ccccc2)C1)c1ccc(F)cc1
    ?	15.8%	23.5	-13.9%	5.8	0.7	1.4%
16	Cc1ccc2nc(N3C(=O)C(O)=C(C(=O)c4ccco4)C3c3cccc(O)c3)sc2c1 (stereo not given)
    27.9%	2.1%	4.4	0.7%	14.7	-11.5	-6.0%
17	CCSc1nnc(NC(=O)c2csc(C)c2)s1
    -4.8%	29.1%	-12.8	-3.6%	8.9	-6.5	14.2%
18	CC1CCCCC1NC(=O)CSc1ncnc2sccc12 (stereo not given)
    23.8%	.	.	-1.2%	.	-1.9	.
19	C/C(CC(=O)Nc1ccc(Cl)cn1)=N\NC(=O)Cc1cccs1
    5.7%[15.4 µM]	15.2%	0.3	0.2%	3.9	-8.8	-8.1%
20	COc1ccc(C(=O)Nc2nc(-c3cccs3)cs2)cc1
    -25.6%	?	1.6	-8.8%	0.0	-18.9	?
21	c1ccc2[nH]c(CCCCc3nc4ccccc4[nH]3)nc2c1
    -7.4%	11.0%	6.4	-6.5%	1.5	-22.0	0.5%
22	O=C(N/N=C/C1CCCCC1)c1cc(Cl)ccc1O
    3.0%	17.8%	9.7	?	-4.4	-7.1	-16.0%
23	C/C(=N\Nc1ccc(C(F)(F)F)cn1)c1ccc(S(=O)(=O)NCc2ccco2)cc1
    22.5%	5.0%	1.0	-7.3%	4.3	-14.8	-7.8%
24	Cc1cc2oc(=O)sc2cc1NS(=O)(=O)c1cccc2cccnc12
    -42.2%[15.4 µM]	8.7%	-0.7	.	-18.3	13.4	-23.8%
25	COc1ccc(CC2(CO)CCN(CC3=CC[C@H]4C[C@@H]3C4(C)C)CC2)cc1
    2.4%	2.9%	-3.8	-1.1%	-0.8	-17.5	9.5%
26	CCCCN(CC(=O)NCc1ccc(Cl)cc1)S(=O)(=O)c1ccc2c(c1)OCCO2
    -25.1%	3.6%	-6.0	-16.4%	7.3	-21.3	-15.4%
27	CC(C)CC(=O)NC(NCC1CCCO1)C(Cl)(Cl)Cl (stereo not given)
    -14.6%	-1.0%	2.9	-1.3%	-1.2	11.9	?
28	CC1CCc2c(sc(NC(=O)CSc3ncnc4c3cnn4-c3ccccc3Cl)c2C#N)C1 (stereo not given)
    -34.7%[inhibitor]	8.4%	7.4	-1.0%	0.5	-15.6	-0.1%
29	CCC(C)(C)NC(=O)C(c1cccn1C)N(Cc1ccc(OC)cc1)C(=O)Cn1nnc2ccccc21 (stereo not given)
    -29.5%	15.3%	9.0	1.3%	-1.3	-4.9	6.2%
30	O=C(NCc1ccccc1CN1CCOCC1)c1ccc(-n2cccn2)cc1
    21.6%	.	.	-3.1%	.	-5.8	-2.7%

Numbers 1 through 5, reprinted for reference:
Below each SMILES – gsp ag	Sfp PPTase inh	TRPV1 PAM	ClpP mod	Menin-MLL FL inh	D2 PAM	gsp antagonist
1	COC(=O)c1[nH]c2ccc(Cl)cc2c1NC(=O)CN1CCC(C(N)=O)CC1
    -14.8%	9.4%	10.5	-21.9%	5.9	-11.7	-0.9%
2	O=C(c1ccccc1)c1coc2ccc(O)c(CN3CCOCC3)c12
    11.9%	6.7%	?	1.0%	2.9	-0.8	-15.1%
3	COCCNC(=O)/C(C#N)=C/c1c(N2CCCCCC2)nc2c(C)cccn2c1=O
    -9.7%[15.4 µM]	-1.7%	-12.9	0.4%	0.8	-5.2	3.2%
4	COc1ccc(CNC(=O)C2CCN(S(=O)(=O)c3c(C)n[nH]c3C)CC2)cc1
    22.2%	6.8%	-1.5	-1.5%	0.5	-2.2	1.6%
5	Cc1ccc(NC(=O)CSc2nnc(CNC(=O)c3ccco3)o2)cc1
    26.3%	17.1%	-35.9	-0.1%	-1.0	-2.9	5.7%

The list goes on:
Below each SMILES – gsp ag	Sfp PPTase inh	TRPV1 PAM	ClpP mod	Menin-MLL FL inh	D2 PAM	gsp antagonist
31	COCCN1C(=O)C(CC(=O)Nc2ccccc2)SC1=Nc1ccc(OC)cc1 (stereo not given)
    -17.9%	11.0%	-8.4	-1.0%	0.8	1.8	-1.6%
32	CCN(CC)c1ccc(NC(=O)c2ccccc2Br)cc1S(=O)(=O)Nc1ccccc1OC
    -10.6%[15.4 µM]	3.16µM*	-12.6	-6.9%	2.8	-0.5	7.4%
33	NC(=O)c1ccc(C2SCC(=O)N2Cc2ccccc2)cc1 (stereo not given)
    9.4%	9.6%	-7.9	-0.7%	4.0	-3.2	10.0%
34	Cc1cc2c(cc1C)CSC(c1ccccc1OC(=O)C(C)C)SC2
    -22.9%	-13.5%	-4.2	0.9%	6.7	-11.8	-20.4%
35	COC(=O)c1cc(C(=O)N2CCN(C(=O)c3ccco3)CC2)cc([N+](=O)[O-])c1
    -8.5%	3.8%	-8.2	0.4%	0.3	21.1	10.4%
36	COC(=O)COc1ccc(S(=O)(=O)NCC2CCCO2)cc1Cl (stereo not given)
    -2.5%	-1.6%	9.8	-1.1%	-0.2	-1.2	-11.6%
37	O=C1NC2(CCCCC2)N(C(=O)c2ccccc2)C2=C1CCCC2
    -17.8%	-2.7%	-6.0	2.0%	-0.9	-0.5	0.2%
38	CN(C)S(=O)(=O)c1ccc(C(=O)NCc2nc3ccccc3s2)cc1
    -1.7%[15.4 µM]	6.3%	10.3	.	.	-11.9	15.7%
39	c1cc2c(cc1NC1CCCCCC1)OCO2
    13.2%[15.4 µM]	?	-0.7	-1.3%	1.1	-1.4	5.6%
40	CCN(CC)C(=O)C(=O)c1cccn1-c1c(Cl)cccc1C#N
    -11.2%	10.5%	0.6	0.7%	-4.2	-6.6	10.8%
41	Cc1ccc2c(CN3CCCCC3C)cc(=O)oc2c1 (stereo not given)
    15.8%	-4.1%	-8.8	-2.8%	9.0	-12.1	-6.1%
42	CCc1ccc(CN(C)C(=O)CCc2nnc(CCc3ccccc3OC)o2)nc1
    1.0%	-5.0%	-1.6	.	0.4	0.0	0.4%
43	CCOC(=O)/C=C1\SCC(=O)N1CC(=O)Nc1cc(S(=O)(=O)N(C)C)ccc1C
    11.6%	.	.	.	.	-11.1	-0.7%
44	CC(NC(=O)COC(=O)c1cccnc1Cl)C12CC3CC(CC(C3)C1)C2 (stereo not given)
    2.1%	.	.	-2.8%	.	-14.4	-1.2%
45	CC1CC1C(=O)N1CCN(S(=O)(=O)c2cc(C(F)(F)F)cc(C(F)(F)F)c2)CC1 (stereo not given)
    -1.9%	.	-23.3	-1.4%	.	-4.1	-4.0%
46	Cn1c(=O)c2c(nc(NCCCO)n2C/C=C/c2ccccc2)n(C)c1=O
    27.6%	13.7%	-2.1	-1.2%	-0.8	-14.1	12.5%
47	COc1cc([N+](=O)[O-])ccc1N1C(=O)C2C3C=CC(C4CC34)C2C1=O (stereo not given)
    12.4%[15.4 µM]	6.3%	15.4	.	-0.6	-10.0	.
48	COc1cc(C2C3C(=O)N(c4ccc(F)cc4)C(=O)C3ON2c2ccccc2)ccc1O (stereo not given)
    17.1%	5.9%	23.6	0.6%	4.3	9.4	15.5%

This is a random part of the collection; 5.1% or so of the library scored in one or more.
